FGF22 binding = binders of human FGF22 protein, primary screen, FGF22 synaptogenesis inhibitor project, biophysical, thermal shift, single point | Fibroblast growth factor 22 (Homo sapiens), Q9HCT0 | recombinant FGF22 thermal shift, SYPRO orange fluorescence; percent of sucrose octasulfate shift, DMSO zero | calls only at 9.99 µM | 340,000 tested, 1.5% active;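 active = melting point raised past a set limit in the mean and every replicate; three in four hits are not shown here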
Target sequence (Q9HCT0 whole entry, looked up): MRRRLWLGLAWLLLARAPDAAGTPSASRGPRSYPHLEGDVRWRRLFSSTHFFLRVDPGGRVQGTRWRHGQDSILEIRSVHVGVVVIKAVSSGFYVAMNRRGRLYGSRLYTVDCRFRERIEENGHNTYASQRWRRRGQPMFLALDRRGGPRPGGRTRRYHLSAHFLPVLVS
Ecoli rRNA inh = reduced GFP signal of wild-type E. coli, primary screen, bacterial rRNA inhibitor project, GFP/RFP fluorescence, OD600, single point; 350,000 tested, 1.6% active; GFP signal change (wild-type ribosome), % (no concentration beside the values); AID 720706, 2013; E. coli WT GFP vs humanized-ribosome RFP mutants, 24 h; hits give low values; DMSO median 0, no signal -100;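 active = significant combined selectivity score with lowered wild-type GFP, culture density cut under 30%, mutant RFP and density less affected; inactive = any of these conditions unmet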; also: one replicate is shown; some compounds called inactive have numbers as strong as hits
Ecoli rRNA inh OD600 = recorded beside Ecoli rRNA inh, whose call it bears; OD600 change, %; measured here: OD600 growth;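 optical density of the mix in the first replicate; 0 = DMSO median and -100 = no signal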
Ecoli rRNA inh RFP = recorded beside Ecoli rRNA inh, whose call it bears; RFP signal change, %; measured here: RFP humanized mutant strains;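 first replicate; 0 = DMSO median and -100 = no signal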
The depositor's hits bear a star.

For COc1cccc(S(=O)(=O)N[C@@H]2CC[C@H](CC(=O)NC3Cc4ccccc4C3)O[C@H]2CO)c1 the results were FGF22 binding inactive, Ecoli rRNA inh -3, Ecoli rRNA inh OD600 1 and Ecoli rRNA inh RFP -0.2.
For C[C@@H]1CN([C@@H](C)CO)C(=O)c2cccc(NC(=O)Nc3ccc(C(F)(F)F)cc3)c2O[C@H]1CN(C)Cc1ccc(Oc2ccccc2)cc1 the results were FGF22 binding inactive, Ecoli rRNA inh -3, Ecoli rRNA inh OD600 6 and Ecoli rRNA inh RFP -2.8.
`C[C@H](CO)N1C[C@H](C)[C@@H](CN(C)S(=O)(=O)c2ccccc2F)Oc2ncc(/C=C/c3ccccc3)cc2C1=O` gave FGF22 binding inactive, Ecoli rRNA inh -6, Ecoli rRNA inh OD600 -2 and Ecoli rRNA inh RFP -1.7.
COC(=O)[C@]12C[C@H](CC(=O)NCC3CCCCC3)C(=O)N(Cc3ccccc3)C1=C[C@H](C1CCCC1)O[C@@H]2C was read as FGF22 binding inactive, Ecoli rRNA inh 4, Ecoli rRNA inh OD600 -4 and Ecoli rRNA inh RFP 2.2.
Screening CC(C)C#Cc1ccc2c(c1)O[C@H](CN(C)C(=O)Cc1ccccn1)[C@@H](C)CN([C@H](C)CO)S2(=O)=O returned FGF22 binding inactive, Ecoli rRNA inh -1, Ecoli rRNA inh OD600 3 and Ecoli rRNA inh RFP -2.4.
For CO[C@H](CN(C)S(=O)(=O)c1ccc(C)cc1)[C@@H](C)CN([C@H](C)CO)S(=O)(=O)c1cccc(Cl)c1 the results were FGF22 binding inactive, Ecoli rRNA inh -2, Ecoli rRNA inh OD600 -10 and Ecoli rRNA inh RFP 5.1.
Screening C[C@@H]1CCCCO[C@@H](CN(C)C(=O)C2CCCCC2)[C@@H](C)CN([C@H](C)CO)C(=O)c2cc(NS(=O)(=O)c3ccc(Cl)cc3)ccc2O1 returned FGF22 binding inactive, Ecoli rRNA inh 2, Ecoli rRNA inh OD600 0 and Ecoli rRNA inh RFP -0.9.
For C[C@H]1CN([C@@H](C)CO)C(=O)Cc2cc(NC(=O)c3ccncc3)ccc2O[C@@H]1CN(C)C(=O)Nc1ccc(C(F)(F)F)cc1 the results were FGF22 binding inactive, Ecoli rRNA inh 5, Ecoli rRNA inh OD600 6 and Ecoli rRNA inh RFP -1.0.
`CCCNC(=O)N1C[C@H](O)COC[C@@H]2O[C@@H](CC(=O)N[C@@H]3CCN(Cc4ccccc4)C3)CC[C@H]21` gave FGF22 binding inactive, Ecoli rRNA inh -4, Ecoli rRNA inh OD600 -3 and Ecoli rRNA inh RFP -0.6.
Screening C[C@@H]1CN([C@@H](C)CO)C(=O)c2cc(C#CC(C)(C)O)cnc2O[C@@H]1CN(C)C(=O)CN(C)C returned FGF22 binding inactive, Ecoli rRNA inh 5, Ecoli rRNA inh OD600 13 and Ecoli rRNA inh RFP -2.0.
Screening C[C@@H]1CCCCO[C@@H](CN(C)Cc2ccc(C(F)(F)F)cc2)[C@H](C)CN([C@@H](C)CO)C(=O)c2cc(NC(=O)NC3CCCCC3)ccc2O1 returned FGF22 binding inactive, Ecoli rRNA inh 3, Ecoli rRNA inh OD600 8 and Ecoli rRNA inh RFP 2.1.
For C[C@H]1CCCCO[C@H](CN(C)S(=O)(=O)c2ccc(F)cc2)[C@@H](C)CN([C@@H](C)CO)C(=O)c2cc(NS(=O)(=O)c3ccccc3)ccc2O1 the results were FGF22 binding inactive, Ecoli rRNA inh 2, Ecoli rRNA inh OD600 -4 and Ecoli rRNA inh RFP 2.8.
For C[C@@H](O)C#Cc1ccc([C@@H]2[C@@H](CO)N3CCCCN(CC4CCOCC4)C[C@@H]23)cc1 the results were FGF22 binding inactive, Ecoli rRNA inh 0, Ecoli rRNA inh OD600 2 and Ecoli rRNA inh RFP -3.3.
Cc1noc(C)c1S(=O)(=O)Nc1ccc2c(c1)C(=O)N([C@H](C)CO)C[C@H](C)[C@@H](CN(C)Cc1ccc(C(F)(F)F)cc1)O2 was read as FGF22 binding inactive, Ecoli rRNA inh -7, Ecoli rRNA inh OD600 -9 and Ecoli rRNA inh RFP 4.6.
`CN1CCN(C(=O)C[C@@H]2CC[C@@H]3[C@H](COC[C@@H](O)CN3C(=O)c3ccccc3F)O2)CC1` gave FGF22 binding inactive, Ecoli rRNA inh 6, Ecoli rRNA inh OD600 11 and Ecoli rRNA inh RFP 11.
C/C=C/c1cnc2c(c1)C(=O)N([C@H](C)CO)C[C@H](C)[C@@H](CN(C)C(=O)Nc1cccc(OC)c1)O2 was read as FGF22 binding inactive, Ecoli rRNA inh 1, Ecoli rRNA inh OD600 13 and Ecoli rRNA inh RFP -3.8.
Screening C[C@@H]1CN([C@@H](C)CO)C(=O)CCCn2cc(nn2)CO[C@@H]1CN(C)C(=O)CCCN(C)C returned FGF22 binding inactive, Ecoli rRNA inh 0, Ecoli rRNA inh OD600 11 and Ecoli rRNA inh RFP 1.6.
`O=S(=O)(c1cccc(F)c1)N1CC[C@@H]2[C@H]1c1cc(Br)ccc1N[C@@H]2CO` gave FGF22 binding inactive, Ecoli rRNA inh -42, Ecoli rRNA inh OD600 -53 and Ecoli rRNA inh RFP -7.8.
Screening C[C@H](CO)N1C[C@H](C)[C@H](CN(C)Cc2ccc(C(=O)O)cc2)Oc2ccc(NC(=O)Nc3ccc4c(c3)OCO4)cc2C1=O returned FGF22 binding inactive, Ecoli rRNA inh 1, Ecoli rRNA inh OD600 5 and Ecoli rRNA inh RFP 0.5.
CC(=O)N[C@H]1C=C[C@@H](CC(=O)NCc2ccc(Cl)cc2)O[C@H]1CO was read as FGF22 binding inactive, Ecoli rRNA inh 1, Ecoli rRNA inh OD600 -4 and Ecoli rRNA inh RFP -2.9.
For CN1CCN(C(=O)C[C@@H]2C[C@H]3c4cc(NC(=O)NC5CCCCC5)ccc4O[C@H]3[C@H](CO)O2)CC1 the results were FGF22 binding inactive, Ecoli rRNA inh 3, Ecoli rRNA inh OD600 3 and Ecoli rRNA inh RFP -1.1.
Screening CNC[C@@H]1Oc2ccc(NC(=O)CCC(F)(F)F)cc2CC(=O)N([C@H](C)CO)C[C@H]1C returned FGF22 binding inactive, Ecoli rRNA inh 4, Ecoli rRNA inh OD600 14 and Ecoli rRNA inh RFP -1.3.
COC(=O)C[C@H]1CC[C@@H]2[C@H](COC[C@H](O)CN2S(=O)(=O)c2ccc(F)cc2)O1 was read as FGF22 binding inactive, Ecoli rRNA inh -1, Ecoli rRNA inh OD600 7 and Ecoli rRNA inh RFP 0.6.
C[C@H](CO)N1C[C@H](C)[C@H](CN(C)C(=O)C2CCOCC2)Oc2cc(C3=CCCCC3)ccc2S1(=O)=O was read as FGF22 binding inactive, Ecoli rRNA inh -4, Ecoli rRNA inh OD600 -11 and Ecoli rRNA inh RFP -2.8.

Next part, starting with the last 2 of the part before.
COC(=O)C[C@H]1CC[C@@H]2[C@H](COC[C@H](O)CN2S(=O)(=O)c2ccc(F)cc2)O1 was read as FGF22 binding inactive, Ecoli rRNA inh -1, Ecoli rRNA inh OD600 7 and Ecoli rRNA inh RFP 0.6.
C[C@H](CO)N1C[C@H](C)[C@H](CN(C)C(=O)C2CCOCC2)Oc2cc(C3=CCCCC3)ccc2S1(=O)=O was read as FGF22 binding inactive, Ecoli rRNA inh -4, Ecoli rRNA inh OD600 -11 and Ecoli rRNA inh RFP -2.8.
`CCN1[C@H](C(=O)Nc2ccccc2)[C@@H](CO)[C@@H]2Cn3c(ccc(-c4ccccc4)c3=O)[C@@H]21` gave FGF22 binding inactive, Ecoli rRNA inh -3, Ecoli rRNA inh OD600 -7 and Ecoli rRNA inh RFP 1.4.
`O=C(C[C@@H]1C=C[C@@H](NC(=O)C2CCC2)[C@H](CO)O1)NCCCN1CCOCC1` gave FGF22 binding inactive, Ecoli rRNA inh 3, Ecoli rRNA inh OD600 8 and Ecoli rRNA inh RFP 0.9.
For CC(C)NC(=O)N[C@H]1C=C[C@H](CC(=O)O)O[C@@H]1CO the results were FGF22 binding inactive, Ecoli rRNA inh -3, Ecoli rRNA inh OD600 9 and Ecoli rRNA inh RFP 1.8.
`C[C@H](CO)N1C[C@H](C)[C@@H](CN(C)CC2CCCCC2)Oc2ccc(NS(=O)(=O)c3ccc(F)cc3)cc2C1=O` gave FGF22 binding inactive, Ecoli rRNA inh 2, Ecoli rRNA inh OD600 9 and Ecoli rRNA inh RFP -0.6.
For C[C@H](CO)N1C[C@H](C)[C@@H](CN(C)C(=O)Nc2ccc(F)cc2)Oc2ccc(NS(=O)(=O)c3cn(C)cn3)cc2CC1=O the results were FGF22 binding inactive, Ecoli rRNA inh 5, Ecoli rRNA inh OD600 7 and Ecoli rRNA inh RFP -0.6.
CCC(=O)N(C)C[C@@H]1Oc2ncc(C#C[C@@H](C)O)cc2C(=O)N([C@H](C)CO)C[C@@H]1C was read as FGF22 binding inactive, Ecoli rRNA inh 1, Ecoli rRNA inh OD600 3 and Ecoli rRNA inh RFP -0.9.
C[C@H]1Cn2cnc(C(=O)N3CCN(C(=O)OC(C)(C)C)CC3)c2C(=O)N1 was read as FGF22 binding inactive, Ecoli rRNA inh 20, Ecoli rRNA inh OD600 2 and Ecoli rRNA inh RFP 3.6.
Screening CO[C@H]1CN(C)C(=O)c2cc(NS(C)(=O)=O)ccc2OC[C@H](C)N(C(=O)C2CC2)C[C@@H]1C returned FGF22 binding inactive, Ecoli rRNA inh 2, Ecoli rRNA inh OD600 -6 and Ecoli rRNA inh RFP -0.5.
`COc1cccc(S(=O)(=O)N2C[C@H](O)COC[C@H]3O[C@H](CC(=O)N4CCOCC4)CC[C@@H]32)c1` gave FGF22 binding inactive, Ecoli rRNA inh 2, Ecoli rRNA inh OD600 21 and Ecoli rRNA inh RFP -1.1.
COC(=O)C[C@@H]1CC[C@H]2[C@@H](COc3ccc(NS(C)(=O)=O)cc3C(=O)N2C)O1 was read as FGF22 binding inactive, Ecoli rRNA inh 1, Ecoli rRNA inh OD600 6 and Ecoli rRNA inh RFP -1.1.
COc1ccc(NC(=O)N(C)C[C@@H]2Oc3ccc(NS(=O)(=O)c4ccc(OC)cc4)cc3CC(=O)N([C@@H](C)CO)C[C@@H]2C)cc1 was read as FGF22 binding inactive, Ecoli rRNA inh 6, Ecoli rRNA inh OD600 8 and Ecoli rRNA inh RFP 0.3.
Screening CN1C(=O)c2cc(NC(=O)NC3CCCC3)ccc2OC[C@@H]2O[C@H](CC(=O)NCC3CC3)CC[C@H]21 returned FGF22 binding inactive, Ecoli rRNA inh 0, Ecoli rRNA inh OD600 -4 and Ecoli rRNA inh RFP -0.2.
Screening COc1ccc(S(=O)(=O)Nc2ccc3c(c2)C(=O)N([C@H](C)CO)C[C@H](C)[C@@H](CN(C)C(=O)c2ccncc2)OCCCC[C@@H](C)O3)cc1 returned FGF22 binding inactive, Ecoli rRNA inh -1, Ecoli rRNA inh OD600 3 and Ecoli rRNA inh RFP -4.6.
For C[C@@H]1CCCCO[C@@H](CN(C)CC2CCCCC2)[C@@H](C)CN([C@@H](C)CO)C(=O)c2cc(NC(=O)CCCN(C)C)ccc2O1 the results were FGF22 binding inactive, Ecoli rRNA inh 3, Ecoli rRNA inh OD600 3 and Ecoli rRNA inh RFP -0.1.
Screening C[C@@H]1CN([C@H](C)CO)C(=O)c2ccccc2-c2ccccc2CO[C@@H]1CN(C)S(=O)(=O)c1ccc([N+](=O)[O-])cc1 returned FGF22 binding inactive, Ecoli rRNA inh -1, Ecoli rRNA inh OD600 0 and Ecoli rRNA inh RFP 0.5.
COc1cccc(S(=O)(=O)N[C@H]2CC[C@H](CCn3cc(-c4ccccc4OC)nn3)O[C@H]2CO)c1 was read as FGF22 binding inactive, Ecoli rRNA inh -6, Ecoli rRNA inh OD600 -15 and Ecoli rRNA inh RFP -4.5.
`C[C@H](CO)N1C[C@H](C)[C@H](CN(C)C(=O)Nc2ccccc2)Oc2ccc(NS(=O)(=O)c3ccccc3)cc2C1=O` gave FGF22 binding inactive, Ecoli rRNA inh 3, Ecoli rRNA inh OD600 7 and Ecoli rRNA inh RFP -0.8.
C[C@@H](NC(=O)[C@H]1[C@H](CO)[C@H]2Cn3c(cccc3=O)[C@@H]1N2Cc1ccncc1)c1ccccc1 was read as FGF22 binding inactive, Ecoli rRNA inh 2, Ecoli rRNA inh OD600 -3 and Ecoli rRNA inh RFP -2.3.
CN(C)C(=O)[C@@H]1[C@@H](CO)[C@@H]2Cn3c(ccc(-c4ccccc4)c3=O)[C@@H]2N1Cc1ccccc1 was read as FGF22 binding inactive, Ecoli rRNA inh -3, Ecoli rRNA inh OD600 6 and Ecoli rRNA inh RFP 0.4.
For COc1ccc(S(=O)(=O)N2CCCCN3[C@H](C2)[C@H](c2ccc(C#CC4CC4)cc2)[C@@H]3CO)cc1 the results were FGF22 binding inactive, Ecoli rRNA inh 2, Ecoli rRNA inh OD600 7 and Ecoli rRNA inh RFP -1.6.

Quoted at random: 2 records from the list, in no set order.
COc1cccc(S(=O)(=O)N[C@H]2CC[C@H](CCn3cc(-c4ccccc4OC)nn3)O[C@H]2CO)c1 was read as FGF22 binding inactive, Ecoli rRNA inh -6, Ecoli rRNA inh OD600 -15 and Ecoli rRNA inh RFP -4.5.
`C[C@H](CO)N1C[C@H](C)[C@H](CN(C)C(=O)Nc2ccccc2)Oc2ccc(NS(=O)(=O)c3ccccc3)cc2C1=O` gave FGF22 binding inactive, Ecoli rRNA inh 3, Ecoli rRNA inh OD600 7 and Ecoli rRNA inh RFP -0.8.

Source: PubChem (Broad Institute)

These rows are one share of the data; rates above refer to the full screens.
